From PubChem BioAssay
ugtP null kill = growth inhibition of ugtP-null S. aureus, primary screen, RN4220 ugtP deletion, OD600. 16 h; some inactives read as strong as hits. growth inhibition, % (no concentration beside the values). 330,000 tested, 0.54% active;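 active = z-score under -3 and OD600 up to 0.15 on both plates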;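 also: plate controls were untreated wells for no effect and antibiotic for full effect; wells of about 80 µL received 100 nL stock; the first replicate is given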
BJeLR lethal = MLPCN primary cell-based screen for lethality selective to Ras in HRASV12 cells; 300,000 tested, 0.17% active; AID 1554, 2009; BJeLR (HRASV12) viability, CellTiter-Glo ATP luminescence, 48 h; reference of the scale not given here; inhibition, % (concentration not given with the values);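 active = replicate mean above 50%; inconclusive = above 50% but judged a plate artefact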;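 also: 50 nL library stock added to about 25 µL; numbers are from one replicate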
Sa RN4220 lethal = growth inhibition of S. aureus RN4220, primary screen, OD600. 330,000 tested, 0.33% active. inhibition, % (test concentration not listed). 16 h;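 active = z-score of -3 or lower and OD600 up to 0.18 on both plates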;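 also: plate controls were untreated cells for no effect and reference antibiotic for full effect; stock transfer was 100 nL into about 80 µL; one replicate is shown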
Autofluor counter = counter-screen for toxin protease inhibitors: compound fluorescence; compound autofluorescence counterscreen, microsphere flow cytometry; active compounds read high; fluorescence intensity (test concentration not listed); 360,000 tested, 3.1% active; AID 624483;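 active = at least 3 SD above the mean of all compounds, about 16000 in these data; inconclusive = too few beads counted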;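 also: 100 nL of 1 mM stock went into each well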
Mtb hypoxia rep = PubChem AID 1159583; M. tuberculosis hypoxia-regulated fluorescent reporter, fluorescence; fluorescence inhibition, % (test concentration not listed); 300,000 tested, 0.1% active;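 active = 35 to 45% if threefold the growth effect, above 45% if 1.5-fold the growth effect; inactive = the rest, general growth blockers included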;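 also: wells of about 50 µL received 100 nL stock; 0% = vehicle wells and 100% = reference inhibitor wells; whole bacteria with a GFP reporter of the hypoxia response; strong numbers were not always called active; many hits fall short of the cut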
PrP UTR inh = inhibition of PrP 5' UTR reporter expression. cell-based PrP 5' UTR mRNA reporter, plate reader. inhibition, % (no concentration beside the values). 340,000 tested, 0.35% active. AID 488862, 2010;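 active = every replicate at 50% or more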;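 also: 0 = median of the neutral control wells; tested in H4 reporter cells; numbers are from one replicate; inactives centre near -14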
Mtb hypoxia rep growth = second read-out of Mtb hypoxia rep, no call of its own (marks repeat the call); growth inhibition, %; measured here: M. tuberculosis growth (absorbance);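 0% = vehicle and 100% = reference antibiotic; read after six days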
The depositor's hits bear a star. Compounds were not picked by outcome, and some 4% of all compounds hit somewhere here.

Screening Cc1ccccc1-n1nc(C)c2c1N=C1C(Cl)=CC(Cl)=CN1C2c1ccc(C(=O)O)cc1 (configuration not stated) returned ugtP null kill -1, BJeLR lethal -8, Sa RN4220 lethal 5.4, Autofluor counter 2008, Mtb hypoxia rep 5, PrP UTR inh -22 and Mtb hypoxia rep growth 6.
For O=c1c2ccccc2ncn1-c1cccc(Cl)c1 the results were ugtP null kill 10, BJeLR lethal 0, Sa RN4220 lethal 8.4, Autofluor counter 2862 and PrP UTR inh -26.
`O=C(Cc1ccc([N+](=O)[O-])cc1)c1ccc(O)cc1O` gave ugtP null kill 1, BJeLR lethal -5, Sa RN4220 lethal 2.9, Autofluor counter 3604, Mtb hypoxia rep -1, PrP UTR inh -35 and Mtb hypoxia rep growth -14.
Screening Cc1ccn2cc(C(=O)Nc3nnc(C)s3)nc2c1 returned ugtP null kill -4, BJeLR lethal -17, Sa RN4220 lethal 4.2, Autofluor counter 7695, Mtb hypoxia rep -5, PrP UTR inh -106 and Mtb hypoxia rep growth -3.
c1csc(CCCN2CCCCC2)c1 was read as ugtP null kill 1, Sa RN4220 lethal 2.9, Autofluor counter 4394, Mtb hypoxia rep 0, PrP UTR inh -14 and Mtb hypoxia rep growth 0.
O=C(CNC(=O)C1COc2ccccc2O1)NN=Cc1cc(Br)c(O)c(Br)c1 (configuration not stated) was read as ugtP null kill 4, Sa RN4220 lethal 23, Mtb hypoxia rep -4 and Mtb hypoxia rep growth -3.
Screening COc1ccc(COC(=O)C2=C(C)NC(=O)NC2c2cc(OC)ccc2OC)cc1 (configuration not stated) returned ugtP null kill 8, BJeLR lethal -7, Sa RN4220 lethal 3.6, Autofluor counter 3818, Mtb hypoxia rep 19, PrP UTR inh -8 and Mtb hypoxia rep growth 12.
Screening Cc1cc2ccccn2c1C(=O)c1ccc(C#N)cc1 returned ugtP null kill 7, BJeLR lethal -4, Sa RN4220 lethal 1.7, Autofluor counter 3184, Mtb hypoxia rep 4, PrP UTR inh -27 and Mtb hypoxia rep growth 3.
For Cc1ccc(C2CC(C(F)(F)F)n3ncc(C(N)=O)c3N2)cc1 (configuration not stated) the results were ugtP null kill -6, BJeLR lethal -4, Sa RN4220 lethal -14, Autofluor counter 3424, Mtb hypoxia rep 2, PrP UTR inh -16 and Mtb hypoxia rep growth 9.
`COc1cc2cnc(-c3cccnc3)cc2cc1OC` gave ugtP null kill 10, Sa RN4220 lethal 13, Autofluor counter 3874, Mtb hypoxia rep 24, PrP UTR inh -5 and Mtb hypoxia rep growth 31.
Screening COc1ccccc1-c1nnc2n1N=C(c1ccc(O)c(O)c1)CS2 returned ugtP null kill -9, BJeLR lethal 25, Sa RN4220 lethal 4.5, Autofluor counter 15681, Mtb hypoxia rep 3, PrP UTR inh 61* and Mtb hypoxia rep growth -1.
For CCCCCc1nnc(NC(=O)c2ccc(=O)n(C)n2)s1 the results were ugtP null kill 11, BJeLR lethal 9, Sa RN4220 lethal 14, Autofluor counter 4900, Mtb hypoxia rep 14, PrP UTR inh -26 and Mtb hypoxia rep growth 8.
`O=C(C[n+]1ccccc1)N/N=C/c1ccc(F)cc1` gave BJeLR lethal 4, Autofluor counter 4526 and PrP UTR inh -20.
C=CCONC(=O)c1cc(OCC(F)(F)F)ccc1OCC(F)(F)F was read as ugtP null kill 0, BJeLR lethal 4, Sa RN4220 lethal 6.0, Autofluor counter 24141*, Mtb hypoxia rep 7, PrP UTR inh -24 and Mtb hypoxia rep growth 7.
CC(=O)N1c2ccc(S(=O)(=O)N3CCC(C(=O)Nc4cccc(C)c4)CC3)cc2CC1C (configuration not stated) was read as ugtP null kill 6, BJeLR lethal 24, Sa RN4220 lethal -4.8, Autofluor counter 5837, Mtb hypoxia rep 9, PrP UTR inh -8 and Mtb hypoxia rep growth 9.
Cc1ccc(C(=O)Oc2ccc(-c3nnco3)cc2)o1 was read as ugtP null kill 0, BJeLR lethal -8, Sa RN4220 lethal -0.3, Autofluor counter inconclusive, Mtb hypoxia rep 4, PrP UTR inh -21 and Mtb hypoxia rep growth 0.
Cc1cccc(NC(=O)CN2C(=O)S/C(=C\c3ccccn3)C2=O)c1 was read as ugtP null kill 1, BJeLR lethal 14, Sa RN4220 lethal 1.5, Autofluor counter 4583, Mtb hypoxia rep 1, PrP UTR inh -22 and Mtb hypoxia rep growth 5.
For CCc1nnc(NS(=O)(=O)c2ccc(NC(=S)NC(=O)c3ccncc3)cc2)s1 the results were ugtP null kill -9, BJeLR lethal -1, Sa RN4220 lethal 1.6, Autofluor counter 3318, Mtb hypoxia rep 1, PrP UTR inh -11 and Mtb hypoxia rep growth 1.
For CN(c1ccc(C(=O)Nc2ccc(F)cc2F)cc1)S(=O)(=O)c1ccccc1 the results were ugtP null kill -6, BJeLR lethal 3, Sa RN4220 lethal -4.8, Mtb hypoxia rep 4, PrP UTR inh -28 and Mtb hypoxia rep growth -31.
NC1=NC(=O)/C(=C\c2cc([N+](=O)[O-])ccc2Cl)S1 was read as BJeLR lethal -6, Autofluor counter 2055 and PrP UTR inh 5.
`Cc1c(NC(=O)CN2C(=O)NC3(CCCCC3C)C2=O)cccc1[N+](=O)[O-]` (configuration not stated) gave ugtP null kill 1, Sa RN4220 lethal -0.8, Autofluor counter 5553, Mtb hypoxia rep 3, PrP UTR inh -17 and Mtb hypoxia rep growth 5.
`COC(=O)c1cccc(COC(=O)c2ccc(N(C)C)cc2)c1` gave ugtP null kill 8, BJeLR lethal 9, Sa RN4220 lethal 15, Autofluor counter 4580, Mtb hypoxia rep 0, PrP UTR inh 1 and Mtb hypoxia rep growth 7.
CCSc1nc(=S)n(-c2ccccc2)c(C)c1C(C)=O was read as ugtP null kill 8, BJeLR lethal -2, Sa RN4220 lethal 4.7, Autofluor counter 2369, Mtb hypoxia rep 5, PrP UTR inh -14 and Mtb hypoxia rep growth 8.
Screening O=C(COC(=O)CNC(=O)c1ccc(Cl)c([N+](=O)[O-])c1)NC(=O)CN1CCCC1=O returned ugtP null kill 3, BJeLR lethal 1, Sa RN4220 lethal 1.2, Autofluor counter 6022, Mtb hypoxia rep 10, PrP UTR inh -35 and Mtb hypoxia rep growth 0.
Screening Cc1ccc2nc(N3CCN(Cc4nnnn4Cc4ccccc4)CC3)c(C#N)cc2c1 returned ugtP null kill -3, BJeLR lethal -14, Sa RN4220 lethal -1.9, Autofluor counter 3338, Mtb hypoxia rep 11, PrP UTR inh -40 and Mtb hypoxia rep growth 0.
`Cc1nnc(SCC(=O)Nc2nccs2)[nH]c1=O` gave ugtP null kill -1, BJeLR lethal 3, Sa RN4220 lethal 0.6, Autofluor counter 2643 and PrP UTR inh -31.
`COc1ccc(C(=O)N2CCN(Cc3cn[nH]c3-c3ccc(OC)cc3F)CC2)cc1` gave ugtP null kill 10, BJeLR lethal 3, Sa RN4220 lethal 3.4, Autofluor counter 2466, Mtb hypoxia rep 12, PrP UTR inh -6 and Mtb hypoxia rep growth 0.
`C=CCOC(=O)C1=C[C@@H](c2ccc(Br)cc2)[C@H](CCCO)[C@@H](OCC)O1` gave BJeLR lethal -6, Autofluor counter 3990 and PrP UTR inh 0.
Screening COc1ccc2[nH]cc(CCNC(=O)C3CCCCC3)c2c1 returned ugtP null kill 1, BJeLR lethal -10, Sa RN4220 lethal 3.1, Autofluor counter 4147, Mtb hypoxia rep 8, PrP UTR inh -20 and Mtb hypoxia rep growth 8.
Screening Cc1ccc(-c2nn(CC(=O)Nc3cccnc3)c(=O)c3ccccc23)cc1 returned ugtP null kill -11, BJeLR lethal 11, Sa RN4220 lethal 3.8, Autofluor counter 9131, Mtb hypoxia rep 15, PrP UTR inh -12 and Mtb hypoxia rep growth 19.
O=C(O)C1CC(=O)N(C2CCCCC2)C1c1ccccc1 (configuration not stated) was read as ugtP null kill 2, BJeLR lethal -2, Sa RN4220 lethal 1.1, Autofluor counter 4290, Mtb hypoxia rep 10, PrP UTR inh -8 and Mtb hypoxia rep growth -1.
`COc1ccc(C(=O)NCc2c(C)oc(C)c2C(=O)O)cc1` gave ugtP null kill 9, BJeLR lethal -6, Sa RN4220 lethal 4.9, Autofluor counter 3063, Mtb hypoxia rep 20, PrP UTR inh -12 and Mtb hypoxia rep growth 12.
`COCCNC(=O)c1ccc2c(=O)n(CCOC)c(=O)[nH]c2c1` gave ugtP null kill 11, BJeLR lethal -6, Sa RN4220 lethal 1.0, Autofluor counter 3247, Mtb hypoxia rep 7, PrP UTR inh -23 and Mtb hypoxia rep growth 3.
`CCN(Cc1ccccc1)S(=O)(=O)c1cc2[nH]c(=O)c(=O)[nH]c2cc1C` gave ugtP null kill 2, BJeLR lethal -7, Sa RN4220 lethal 1.3, Autofluor counter 4193 and PrP UTR inh 6.
`Cn1c(=O)n(C)c2cc(S(=O)(=O)O)ccc21` gave ugtP null kill -3, BJeLR lethal 8, Sa RN4220 lethal 4.2, Autofluor counter 3249, Mtb hypoxia rep 7, PrP UTR inh -11 and Mtb hypoxia rep growth 7.
Cc1nc(SCC(=O)c2ccccc2)c(C#N)c(-c2ccco2)c1C(=O)NCc1ccco1 was read as ugtP null kill -6, BJeLR lethal 0, Sa RN4220 lethal 3.6, Autofluor counter 2719, Mtb hypoxia rep 18, PrP UTR inh -17 and Mtb hypoxia rep growth 11.
Screening Cc1ccc(NC(=O)COC(=O)CNC(=O)c2ccc(Cl)cc2Cl)cc1S(=O)(=O)N1CCOCC1 returned ugtP null kill -6, BJeLR lethal -4, Sa RN4220 lethal 8.7, Mtb hypoxia rep -10, PrP UTR inh -12 and Mtb hypoxia rep growth 5.
Screening CCOC(=O)c1c(-c2ccccc2)csc1NC(=O)CSc1ccccc1 returned ugtP null kill 56, BJeLR lethal -3, Sa RN4220 lethal -6.8, Autofluor counter 2160, Mtb hypoxia rep 8, PrP UTR inh -24 and Mtb hypoxia rep growth -4.
Screening CCOc1ccc2[nH]c(=O)c(CN(CC3CCCN3CC)C(=O)NCc3ccccc3)cc2c1 (configuration not stated) returned ugtP null kill -12, BJeLR lethal 5, Sa RN4220 lethal -5.0, Autofluor counter 3847, Mtb hypoxia rep 6, PrP UTR inh -8 and Mtb hypoxia rep growth 21.
For Cc1cc2n(n1)C(c1ccc3c(c1)OCO3)Nc1ccccc1-2 (configuration not stated) the results were ugtP null kill -19, BJeLR lethal -6, Sa RN4220 lethal 2.8, Autofluor counter 21039*, Mtb hypoxia rep -6, PrP UTR inh 0 and Mtb hypoxia rep growth 6.
`CCc1ccccc1NC(=O)CNC(=O)CNC(=O)C1CCCCC1` gave ugtP null kill -5, Sa RN4220 lethal -0.9, Autofluor counter 2891, Mtb hypoxia rep 9, PrP UTR inh -12 and Mtb hypoxia rep growth 4.
Screening CC1CCN(C(=O)CCNS(=O)(=O)c2ccc(Br)cc2)CC1 returned ugtP null kill 2, Sa RN4220 lethal 1.9, Autofluor counter 4030, Mtb hypoxia rep 8, PrP UTR inh -20 and Mtb hypoxia rep growth 9.
For CN(CC(=O)Nc1ccc(S(=O)(=O)N2CCCC2)cc1)Cc1cccc(Cl)c1Cl the results were ugtP null kill -26, BJeLR lethal -1, Sa RN4220 lethal -0.2, Autofluor counter 2146, Mtb hypoxia rep 2, PrP UTR inh -19 and Mtb hypoxia rep growth 4.

Quoted at random: 5 entries already listed.
Screening CC1CCN(C(=O)CCNS(=O)(=O)c2ccc(Br)cc2)CC1 returned ugtP null kill 2, Sa RN4220 lethal 1.9, Autofluor counter 4030, Mtb hypoxia rep 8, PrP UTR inh -20 and Mtb hypoxia rep growth 9.
Screening CCOC(=O)c1c(-c2ccccc2)csc1NC(=O)CSc1ccccc1 returned ugtP null kill 56, BJeLR lethal -3, Sa RN4220 lethal -6.8, Autofluor counter 2160, Mtb hypoxia rep 8, PrP UTR inh -24 and Mtb hypoxia rep growth -4.
Screening CCOc1ccc2[nH]c(=O)c(CN(CC3CCCN3CC)C(=O)NCc3ccccc3)cc2c1 (configuration not stated) returned ugtP null kill -12, BJeLR lethal 5, Sa RN4220 lethal -5.0, Autofluor counter 3847, Mtb hypoxia rep 6, PrP UTR inh -8 and Mtb hypoxia rep growth 21.
For Cc1cc2n(n1)C(c1ccc3c(c1)OCO3)Nc1ccccc1-2 (configuration not stated) the results were ugtP null kill -19, BJeLR lethal -6, Sa RN4220 lethal 2.8, Autofluor counter 21039*, Mtb hypoxia rep -6, PrP UTR inh 0 and Mtb hypoxia rep growth 6.
Screening Cc1ccc(NC(=O)COC(=O)CNC(=O)c2ccc(Cl)cc2Cl)cc1S(=O)(=O)N1CCOCC1 returned ugtP null kill -6, BJeLR lethal -4, Sa RN4220 lethal 8.7, Mtb hypoxia rep -10, PrP UTR inh -12 and Mtb hypoxia rep growth 5.
